Assay outcomes: PubChem BioAssay, National Center for Advancing Translational Sciences (NCATS)
VDR inh = Inhibitors of the vitamin D receptor (VDR): qHTS; VDR-SRC2-3 peptide fluorescence polarization, 2 h; Potency, µM, inactives show max response, negative = inhibition, usual class: inhibitors; hit rate 0.93% among 400,000; AID 504847, 2011; active = well fitted inhibition curve with a large enough effect; inconclusive = small, poorly fitted or top-dose-only effect, or another doubt; inactive = no such curve, though single readings can be large or run the other way; note: series mostly up to about 120 µM
Target sequence (P11473 whole entry, looked up): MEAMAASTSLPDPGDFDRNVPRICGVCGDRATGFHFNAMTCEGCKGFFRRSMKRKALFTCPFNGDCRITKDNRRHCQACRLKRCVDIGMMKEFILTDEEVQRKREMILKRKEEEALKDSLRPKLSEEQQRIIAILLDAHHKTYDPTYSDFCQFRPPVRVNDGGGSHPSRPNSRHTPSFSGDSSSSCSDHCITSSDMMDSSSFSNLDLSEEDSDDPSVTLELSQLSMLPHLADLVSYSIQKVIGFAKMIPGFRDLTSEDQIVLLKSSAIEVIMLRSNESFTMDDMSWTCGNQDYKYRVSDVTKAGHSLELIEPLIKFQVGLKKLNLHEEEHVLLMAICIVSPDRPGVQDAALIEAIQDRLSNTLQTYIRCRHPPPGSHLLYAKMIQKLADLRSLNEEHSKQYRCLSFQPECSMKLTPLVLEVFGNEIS
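VDR–SRC2-3 interaction, FP format. Cmpds 23 nl via pintool, brief spin, 2 h ambient incubation.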
Numbers without * were called inactive; ? = inconclusive; & = joins results of further samples; [ ] = dose if it differs, or a comment. % is set by controls: 0 for no effect and ±100 for the full control effect; potency is the fitted concentration of half-maximal effect. Only part of the results is shown; rates above refer to the full screens.

The first six compounds (preview)
SMILES	VDR inh
Cc1oc(-c2cc3c(cc2Cl)OCO3)nc1CN1CCCC1c1ccc(F)cc1 (stereo not drawn)	-14.7%
O=C(/C=C/c1ccccc1)NCCc1c[nH]c2ccccc12	-1.1%
O=[N+]([O-])c1ccc2c(c1)/C(=N\O)c1ccccc1-2	48.5%[activator]
COC(=O)C1=C(c2ccccc2)c2ccccc2S(=O)(=O)N1CC(=O)Nc1ccccc1C(F)(F)F	1.2%
CCc1cc2c(cc3c(=O)n(CC(=O)N4CCN(c5cccc(C)c5C)CC4)nc(CC)n32)s1	8.1%
COc1cccc(CN2CCCC(C(=O)c3ccc4c(c3)OCO4)C2)c1OC (stereo not drawn)	-4.6%

The whole of this part, repeating the preview:
SMILES	VDR inh
Cc1oc(-c2cc3c(cc2Cl)OCO3)nc1CN1CCCC1c1ccc(F)cc1 (stereo not drawn)	-14.7%
O=C(/C=C/c1ccccc1)NCCc1c[nH]c2ccccc12	-1.1%
O=[N+]([O-])c1ccc2c(c1)/C(=N\O)c1ccccc1-2	48.5%[activator]
COC(=O)C1=C(c2ccccc2)c2ccccc2S(=O)(=O)N1CC(=O)Nc1ccccc1C(F)(F)F	1.2%
CCc1cc2c(cc3c(=O)n(CC(=O)N4CCN(c5cccc(C)c5C)CC4)nc(CC)n32)s1	8.1%
COc1cccc(CN2CCCC(C(=O)c3ccc4c(c3)OCO4)C2)c1OC (stereo not drawn)	-4.6%
CCN(CC)S(=O)(=O)c1ccc(N2CCc3cc(OC)c(OC)cc3C2)nc1	-28.2%
COc1ccc2c(c1)c(CC(=O)OCC(=O)N(C)C)c(C)n2C(=O)c1ccc(Cl)cc1	7.6%
O=C1C(O)CC2c3ccccc3CC3(CCCC3)N12 (stereo not drawn)	?
CC(=O)Oc1ccccc1C(=O)N(C1CCCCC1)C1CCCCC1	2.8%
COc1ccc(-c2nc3c(-c4ccccc4)cnn3cc2C)cc1F	-7.7%
CC[C@H](C)[C@H](NC(=O)[C@H](Cc1cnc[nH]1)NC(=O)[C@@H](NC(=O)[C@H](CCCNC(=N)N)NC(=O)[C@H](CCCCN)NC(=O)[C@H](CCCNC(=N)N)NC(=O)[C@H](CCCCN)NC(=O)[C@@H](N)CC(N)=O)[C@@H](C)CC)C(=O)NCC(=O)N1CCC[C@H]1C(=O)NCC(=O)N[C@@H](CCCNC(=N)N)C(=O)N[C@@H](C)C(=O)N[C@@H](Cc1ccccc1)C(=O)N[C@@H](Cc1ccc(O)cc1)C(=O)N[C@H](C(=O)N[C@H](C(=O)N[C@@H](CCCCN)C(=O)N[C@@H](CC(N)=O)C(=O)N[C@H](C(=O)N[C@H](C(=O)NCC(=O)N[C@H](C(=O)N[C@H](C(=O)N[C@@H](CS)C(=O)O)[C@@H](C)CC)[C@@H](C)O)[C@@H](C)CC)[C@@H](C)CC)[C@@H](C)O)[C@@H](C)O	14.0%
O=C(CNS(=O)(=O)c1ccccc1)NCc1cccnc1	-10.3%
O=S(=O)(NCc1nc2cccnc2n1Cc1ccccc1Cl)c1ccc2c(c1)CCCC2	5.9%
CC/C(C)=N\NC(=O)CNC(=O)c1ccc(Cl)cc1Cl	-2.9%
COc1ccc(OC)c(NC(=O)c2ccc(-n3cccn3)nc2)c1	-2.1%
O=C(COC(=O)C1CCN(c2ccc(C(F)(F)F)cn2)CC1)NCc1ccc(Cl)cc1Cl	15.6%
CCN(CC)c1ccc(S(=O)(=O)N2CCOCC2)cc1NC(=O)Cn1nc(C)c([N+](=O)[O-])c1C	7.6%
CCNC(=O)COc1ccc(CC)cc1	?
O=C(COC(=O)c1cnccn1)Nc1ccc(Cl)cc1	-4.8%
O=C(/C=C/c1ccco1)Nc1ccc(Cl)c(-c2nc3cc(Cl)ccc3o2)c1	-25.0%
O=C(Nc1ccc(CN2CCCCC2)cc1)c1c(F)c(F)c(F)c(F)c1F	-2.9%
O=C1N[C@@H](Cc2ccccc2)[C@@H](c2ccco2)O1	-6.3%
CN(C)c1ccc(-c2cc(C3C4C=CCCC4(C)C(=O)N3Cc3ccccc3)ccc2F)cc1 (stereo not drawn)	-16.2%
COc1cccc(Cn2c(=O)n(-c3ccc(C)c(F)c3)c(=O)c3sc4ccccc4c32)c1	-17.3%
COc1ccc(C(=O)CN2C(=O)c3ccccc3C2=O)cc1	-6.6%
COc1ccc(-c2n[nH]c(=S)n2/N=C/c2cccn2C)cc1	-6.3%
COc1ccc(N2C(=O)CC(SC(C)C)C2=O)cc1 (stereo not drawn)	10.0%
Cc1ccc(C2C3=C(CC(C)(C)CC3=O)N(CCN3CCOCC3)C3=C2C(=O)CC(C)(C)C3)cc1	13.0%
Cc1ccc(CSCC(Nc2ccc(C(=O)O)cc2[N+](=O)[O-])C(=O)O)cc1 (stereo not drawn)	3.0%
COc1cccc(N=Nc2c(N)[nH]n3c(=O)c4c(nc23)CCCC4)c1	-3.7%
O=S(=O)(Nc1nc2ccccc2nc1Nc1ccc(N2CCOCC2)cc1)c1cc(Cl)ccc1Cl	-23.1%
CN1CCN(S(=O)(=O)c2ccc([N+](=O)[O-])cc2)CC1	0.5%
Cc1ccc(Cl)c2sc(N3CCN(C(=O)c4ccco4)CC3)nc12	-8.9%
O=C(COc1ccc(Cl)cc1)N1CCCC1	-21.8%
Cc1ccc(CN2CCC(CNC(=O)Nc3ccc(Cl)cc3)C2)cc1 (stereo not drawn)	3.0%
Cc1ccc(C)c(NC(=O)CN(C)C(=O)c2ccc(S(=O)(=O)N3CCCCCC3)cc2)c1	-0.6%
O=C(COc1cc(Cl)c(Cl)cc1Cl)Nc1ccc([N+](=O)[O-])cc1Cl	-8.9%
COc1ccccc1CNC(=O)c1cccc(NC(=O)N2CCSc3ncccc32)c1	0.2%
COc1ccc(Br)cc1CNC(=O)C1COc2ccccc2C1 (stereo not drawn)	1.4%
COc1ccc(-c2cc(C(F)F)n3ncc(C(=O)Nc4cc(OC)ccc4OC)c3n2)cc1	11.3%
O=S(=O)(Nc1ccccc1-c1ccccc1)c1ccccc1	-1.0%
COc1ccc(N2CCN(C(=O)c3sc4nc5n(c(=O)c4c3C)CCC5)CC2)cc1	11.6%
O=[N+]([O-])c1cccc(S(=O)(=O)N2CCN(c3nc(-c4cccs4)nc4ccccc34)CC2)c1	1.0%
CC(C)(C)OC(=O)C[C@@H]1C/C=C\C[C@H](CC(=O)N(CCO)Cc2ccccc2)C(=O)N[C@@H](Cc2c[nH]c3ccccc23)COC1=O	6.0%

Pulled one by one from the list above, 5 records:
SMILES	VDR inh
COc1ccccc1CNC(=O)c1cccc(NC(=O)N2CCSc3ncccc32)c1	0.2%
CC(C)(C)OC(=O)C[C@@H]1C/C=C\C[C@H](CC(=O)N(CCO)Cc2ccccc2)C(=O)N[C@@H](Cc2c[nH]c3ccccc23)COC1=O	6.0%
COc1ccc(-c2cc(C(F)F)n3ncc(C(=O)Nc4cc(OC)ccc4OC)c3n2)cc1	11.3%
O=C(COc1ccc(Cl)cc1)N1CCCC1	-21.8%
O=C(COc1cc(Cl)c(Cl)cc1Cl)Nc1ccc([N+](=O)[O-])cc1Cl	-8.9%

Going on with the list.
SMILES	VDR inh
CCNC(=O)CSc1nc2ccccc2c(=O)n1OC	8.5%
Cc1ccccc1OCCCN1CCCC1	0.2%
CCn1c(SCC(=O)Nc2nccs2)nnc1-c1ccco1	-0.8%
O=C(CCS(=O)(=O)c1ccc2c(c1)NC(=O)CO2)NCc1ccccc1	-5.5%
CCC(=O)Nc1c2c(nn1-c1ccc(F)cc1)CS(=O)C2 (stereo not drawn)	11.8%
CC(=O)c1ccc(N2CCN(C(=O)C3CCN(S(=O)(=O)c4c(C)noc4/C=C/c4ccc(C)cc4)CC3)CC2)cc1	0.5%
Cc1cccc(C)c1NC(=O)CNC(=O)c1ccccc1OCc1ccccc1	-10.7%
CC(=O)NC1(C(F)(F)F)C(=O)Nc2c1c(=O)n(C)c(=O)n2C (stereo not drawn)	14.8%
Cc1ccc(CN2CCN(C(=O)c3ccncc3)CC2)cc1	-2.1%
CN1CCN(C(=O)c2ccc3c(c2)N(Cc2ccccc2)CCS3)CC1	-8.3%
Cc1cc(=O)[nH]c2c(C)c(N)ccc12	3.9%
COc1ccc(-c2nc(-c3ccc(Br)o3)no2)cc1OC	-14.4%
Cc1ccnc2ccc(SC(F)(F)F)cc12	-18.5%
CCOC(=O)N1CCN(C(=O)c2ccc3c(=O)n(Cc4ccccc4OC)c(=S)[nH]c3c2)CC1	-11.6%
CCCC(CCC(=O)Nc1ccn(-c2ccccc2)n1)C(=O)O (stereo not drawn)	9.0%
Cc1oc2c(C)c3oc(=O)c(CCC(=O)NCCCCCC(=O)O)c(C)c3cc2c1C	5.5%
COc1ccc(-c2cc3ccccc3[nH]2)cc1	-3.4%
Cc1ccccc1CCNC(=O)CCn1ccc2cc(S(=O)(=O)N3CCCC3)ccc21	-11.5%
NC1=NC(=O)/C(=C/c2ccccc2OS(=O)(=O)c2ccc3ccccc3c2)S1	-5.6%
O=C(NC1CCN(S(=O)(=O)c2ccccc2C(F)(F)F)CC1)c1ccco1	-4.2%
COc1cccc(NC(=O)CC(C)S(=O)(=O)c2ccc3c(c2)NC(=O)CO3)c1 (stereo not drawn)	7.9%
Cc1ccc(OCCNC(=O)c2ccc(C)o2)cc1	-10.2%
N[C@H](C(=O)O)[C@@H]1[C@@H](C(=O)O)C1(F)F	2.6%&14.3%
O=c1c(Cc2ccc(Cl)cc2Cl)c(O)ccn1CC(F)(F)F	-9.3%
COc1ccc(N/C(N)=N/c2nc(C)cc(=O)[nH]2)cc1	-1.3%
COc1ccccc1C(=O)NC(=O)COC(=O)c1ccc(Br)o1	-6.7%
O=C(O)c1nc(NCc2ccccc2)ncc1Cl	3.6%
O=C1CCCC(=O)N1c1ccc(Oc2ccc(Cl)cc2)cc1	2.6%
CN(C)CCCN(C(=O)c1ccc2c(c1)CCCC2)c1nc2c(F)cccc2s1	-17.1%
CCOC(=O)C1CCN(C(=O)c2cc3c(-c4ccc(OC)c(OC)c4)nn(C)c3s2)CC1	11.4%
O=C(Nc1cccc(-c2nc3ccccc3o2)c1)c1cccc2c(Cl)cccc12	12.5%
CCOC(=O)N1CCC(NC(=O)c2c(C)nn(-c3cccc(C)c3)c2-n2cccc2)CC1	4.9%
Cc1[nH]n2c(=O)cc(C(C)C)nc2c1-c1ccccc1	?
COc1ccc(CNCCC(c2ccc(OC(C)C)cc2)c2ccccc2OC)cc1 (stereo not drawn)	-11.9%
COC(=O)c1c(NC(C)=O)sc(C(=O)Nc2ccccc2F)c1C	-12.1%
COc1ccccc1NC(=O)CN1C(=O)CCSc2ccccc21	7.6%
O=C(COC(=O)c1cccs1)NCc1cccs1	2.5%
Cc1nc2nc(NCc3ccc(Br)cc3)[nH]n2c(=O)c1Cc1ccccc1	16.7%
COc1ccccc1NS(=O)(=O)c1cc(NC(=O)CNC(=O)c2cc(C)cc(C)c2)ccc1C	8.8%
COc1ccc(Cc2nnc(NC(=O)c3ccc(C)cc3)s2)cc1OC	-8.1%
O=C(CCS(=O)(=O)Cc1ccccc1)Nc1nc2c(s1)CCCC2	4.3%
N[C@@H](CCC(=O)N[C@H](CSN=O)C(=O)NCC(=O)O)C(=O)O	?
O=C(CCN1C(=O)/C(=C/c2ccc(Cl)cc2)SC1=S)Nc1cccc(C(=O)O)c1	-9.7%
COCCCNC(=O)CCc1nnc(Cc2ccc(-c3ccccc3)cc2)o1	-4.8%
COCCCNc1nc2c(c(=O)n(Cc3ccc(Cl)cc3)c(=O)n2C)n1C	12.9%
Cc1ccc(C(=O)Nc2ccc3nc(SCC(=O)N4CCc5ccccc54)sc3c2)cc1	17.1%
COc1ccc(CCC(=O)NCc2ccc3c(c2)OCO3)cc1	31.1%[activator]
OC(CCCN1CCCCC1)(c1ccccc1)c1ccccc1	5.7%&5.4%
CC(=O)C[C@H]1c2cc(C(F)(F)F)ccc2S(=O)(=O)N1C1CCCC1	-11.1%
CCCCCCCCC(=O)N/N=C(\C)c1cccnc1	3.9%
Cn1c2c(c(=O)n(C)c1=O)C(c1ccc(Cl)cc1)C(C#N)=C(N)O2 (stereo not drawn)	-18.7%
COc1ccc(OCc2nnc(SCC(=O)N3CCCc4ccccc43)n2-c2ccc(C)cc2)cc1	22.3%
COC(CNS(=O)(=O)c1ccc(S(=O)(=O)NC2CC2)cc1)OC	-12.4%
CC1CCc2cc(F)ccc2N1C(=O)c1cc2nc(-c3ccco3)cc(C(F)(F)F)n2n1 (stereo not drawn)	1.1%
CCOc1ccc(NC(=O)Cn2c(=O)n(CCCC(=O)NC3CCN(Cc4ccccc4)CC3)c(=O)c3ccccc32)cc1	12.6%
CCOc1ccc(N2CC(C(=O)NC(C)C)CC2=O)cc1 (stereo not drawn)	8.9%
CN=C1S/C(=C\c2cccc(Cl)c2Cl)C(=O)N1C	-13.8%
COc1cccc(S(=O)(=O)NCC(=O)Nc2ccc(C(C)(C)C)cc2)c1	2.6%
COc1cc(NC(=O)c2ccccc2)c(OC)cc1NC(=O)Cc1cccs1	14.3%
CCOc1cc(NC(=O)c2ccco2)c(OCC)cc1NC(=O)COc1ccccc1C	7.7%
The results go on.
SMILES	VDR inh
O=C(c1ccc(Br)o1)N1CCN(c2ncccn2)CC1	14.8%
CCn1cc(/C=C(\NC(=O)c2ccccc2OC)C(=O)N2CCN(C)CC2)c2ccccc21	18.0%
CCN(C(=O)C(=O)Nc1ccc2nc3n(c(=O)c2c1)CCCCC3)c1ccc(F)cc1	15.1%
CC(CNC(=O)CCc1nnc(CCC2CCCCC2)o1)c1ccccc1 (stereo not drawn)	25.4%
COc1ccc(NC(=O)N(C)C[C@H]2Oc3c(NC(=O)Nc4c(C)noc4C)cccc3C(=O)N([C@H](C)CO)C[C@@H]2C)cc1	17.1%
O=C(NCC(=O)N(Cc1ccccc1)C(C(=O)NCC1CCCO1)c1ccccc1)c1ccco1 (stereo not drawn)	-1.4%
Cc1cccc(CN2CCN(c3ncccn3)CC2)c1	-6.4%
